Marburg entry inh – qHTS for inhibitors of binding or entry into cells for Marburg Virus | AID 540276, 2011 | 300,000 tested, 1.8% active | Potency, µM (doses to about 37.8 µM), inactives show top-dose activity change, negative = inhibition, usual class: inhibitors | Marburg virus pseudotyped entry inhibition, cell reporter; control for the full effect not named in the record; about a third of the inactives were read at about 46 µM; active = well fitted inhibition curve with a large enough effect; inconclusive = small, poorly fitted or top-dose-only effect, or effect the other way; inactive = flat fitted curve, though single readings scatter; tested in HEK293 cells; about a fifth of its hits are not listed in these tables; note: % is set by controls: 0 for no effect and ±100 for the full control effect; luciferase read-out
NS1 function inh – qHTS Assay for Inhibitors of Influenza NS1 Protein Function. S. cerevisiae slowed by influenza A NS1, growth recovery by OD600. AID 2326, 2010. Potency, µM (doses to about 46.1 µM), inactives show top-dose activity, positive = more growth. 270,000 tested, 0.4% active; active means well fitted rising curve with a large enough effect; inconclusive means small, poorly fitted or top-dose-only effect; inactive means no such curve, though single readings can be large or run the other way; note: nearly all actives have a fitted effect of over 50% in size
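Compounds were scored for reversing the slow growth caused by influenza A NS1 in S. cerevisiae, measured by optical density at 600 nm. Assay medium contained 2% galactose at pH 6.0; NS1-free yeast of the same strain were the positive control.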
SARS PLP yeast – qHTS of Yeast-based Assay for SARS-CoV PLP; S. cerevisiae expressing SARS-CoV PLpro, growth rescue; control for the full effect not named in the record; Potency, µM (series often up to 32.9 µM), for inactives: at the highest dose activity, positive = growth rescue; 330,000 tested, 0.19% active; AID 485353, 2010; active means well fitted rising curve with a large enough effect; inconclusive means small, poorly fitted or top-dose-only effect; inactive means no such curve, though single readings can be large or run the other way; note: 0% is about no effect; nearly all actives have a fitted effect of over 55% in size; growth read by luminescence after 48 h
Lassa entry inh – qHTS for Inhibitors of binding or entry into cells for Lassa Virus; 300,000 tested, 1.2% active; Lassa virus pseudotype entry inhibition, cell reporter; control for the full effect not named in the record; Potency, µM (highest dose often 37.9 µM), for the others: top-dose activity change, negative = inhibition, most hits filed as inhibitors; AID 540256, 2011; active means well fitted inhibition curve with a large enough effect; inconclusive means small, poorly fitted or top-dose-only effect, or effect the other way; inactive means flat fitted curve, though single readings scatter; tested in HEK293 cells; note: % is set by controls: 0 for no effect and ±100 for the full control effect; nearly all actives have a fitted effect of over 50% in size; luciferase read-out
Cruzain inh Det – qHTS Assay for Promiscuous and Specific Inhibitors of Cruzain (with detergent) | purified cruzain, Z-FR-AMC fluorescence, 0.01% Triton | Cruzipain (Trypanosoma cruzi), P25779 | Potency, µM, for the others: max response, negative = inhibition, usual class: inhibitors | 200,000 tested, 0.43% active;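 note: plate controls were neutral wells for no effect and buffer without enzyme for full effect; nearly all actives have a fitted effect of over 40% in size; top concentration of the series not given in the record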
Target sequence (P25779 123-467 limits assumed): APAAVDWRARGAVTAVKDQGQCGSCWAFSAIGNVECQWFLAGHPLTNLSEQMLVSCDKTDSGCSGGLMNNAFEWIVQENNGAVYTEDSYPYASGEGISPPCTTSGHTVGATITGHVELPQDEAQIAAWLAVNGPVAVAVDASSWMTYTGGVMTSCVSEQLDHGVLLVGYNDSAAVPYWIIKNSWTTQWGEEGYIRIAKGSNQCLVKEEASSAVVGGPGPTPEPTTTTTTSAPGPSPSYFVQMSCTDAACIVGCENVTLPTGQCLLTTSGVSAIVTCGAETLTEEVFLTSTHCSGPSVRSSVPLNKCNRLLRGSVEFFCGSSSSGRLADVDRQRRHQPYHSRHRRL
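Read-out: AMC fluorescence (360 nm excitation, 450 nm emission), four reads over 2 min, first-to-third difference used. Conditions: cruzain 1.5 nM, Z-FR-AMC 2 uM, pH 5.5 acetate, 5 mM DTT, 0.01% Triton X-100.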
RE007 growth inh – qHTS Assay for Inhibitors of the HIV-1 protein Vpr; S. pombe RE007 Vpr strain, BacTiter-Glo ATP luminescence, 24 h; control for the full effect not named in the record; Potency, µM (titrated, usually from 92.2 µM), for the others: at the top dose activity change, negative = less growth; 360,000 tested, 0.21% active; AID 651644, 2012; active = well fitted falling curve with a large enough effect; inconclusive = small, poorly fitted or top-dose-only effect; inactive = no such curve, though single readings can be large or run the other way;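 note: % is set by controls: 0 for no effect and ±100 for the full control effect; nearly all actives have a fitted effect of over 50% in size; the assay follows cell death caused by Vpr and the record does not say whether a fall means rescue or toxicity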
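Fission yeast strain RE007, carrying one chromosomally integrated HIV-1 vpr copy, was seeded at OD 0.01 in PMG+AL medium with 23 nL pinned compound. After 24 h at 30 °C and 99% humidity, viability was read by BacTiter-Glo luminescence.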
2A StopGo – High Throughput Screening for Foot and Mouth Disease Virus Antivirals; 410,000 tested, 1.2% active; Potency, µM (highest dose often 57.9 µM), for the others: at the top dose signal change, negative = less light; human cells with a luciferase reporter of 2A StopGo recoding; control for the full effect not named in the record; active = well fitted falling curve with a large enough effect; inconclusive = small, poorly fitted or top-dose-only effect; inactive = no such curve, though single readings can be large or run the other way; tested in HEK293T cells; note: % is set by controls: 0 for no effect and ±100 for the full control effect; nearly all actives have a fitted effect of over 45% in size; luciferase light after 4 h
Cruzain inh noDet – qHTS Assay for Promiscuous and Specific Inhibitors of Cruzain (without detergent); AID 1476, 2009; Potency, µM, without a hit: max response, negative = inhibition, most hits filed as inhibitors; purified cruzain, Z-FR-AMC fluorescence, no detergent; 200,000 tested, 2.3% active;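 note: plate controls were enzyme without inhibitor for no effect and buffer without enzyme for full effect; nearly all actives have a fitted effect of over 40% in size; top concentration of the series not given in the record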
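Purified cruzain at 1.5 nM, pre-incubated 15 min with compound at room temperature in 100 mM sodium acetate pH 5.5, 5 mM DTT, 0.00005% Triton X-100. Reaction started with 2 uM Z-FR-AMC; AMC fluorescence increase over 60 s gives rate.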
* hit, by the source's call; ? = inconclusive; nt = not tested or not shown; & = joins results of further samples; [ ] = another dose, or the depositor's remark. Unless noted, calls come from the whole dose curve; as a rule, active = well fitted curve in the direction sought with a large enough effect; inconclusive = small, poorly fitted or top-dose-only effect, or another doubt; inactive = no such curve, though single readings can be large; an effect the other way counts as inactive or inconclusive. Potency is the fitted concentration of half-maximal effect.

Value order – 2A StopGo, NS1 function inh, Marburg entry inh, Lassa entry inh, Cruzain inh noDet, RE007 growth inh, Cruzain inh Det, SARS PLP yeast
Cc1cc(C)nc(-n2nc(C)c3c(C(F)F)cc(C)nc32)n1
 : -4%, 4%, 16%, 3%, 3%, 5%, -0.3%, 5%
O=C(Cc1c[nH]c2ccccc12)NCc1ccc2c(c1)OCO2
 : 48%[activator], 0%, 14%, 21%, 1%, -3%, 2.8%, 2%
O=C(c1cc2ccccc2c(=O)o1)N1CCCC1
 : nt, 3%, 8%, 10%, -5%, nt, -4.8%, -1%
Cc1ccc(-c2nc(-c3cc4cccc(OCc5ccc(F)cc5)c4oc3=O)no2)cc1
 : -7%, nt, -6%[46.1 µM], 2%[46.1 µM], -13%, nt, -7.8%, nt
Cc1ccc(S(=O)(=O)CCc2nnc(NC(=O)c3cnccn3)s2)cc1
 : -3%, 14%, 8%, -1%, 2%, -7%, -2.1%, 3%
CCOCCCNS(=O)(=O)c1cc2[nH]c3c(c2cc1C)C(=O)CC(C)(C)C3
 : 7%, -2%, ?, -2%[46.1 µM], nt, 9%, nt, 2%
O=C(C1=COCCO1)N1CCN(C(c2ccccc2)c2ccccc2)CC1
 : -8%, -31%, ?, ?, 20%, 24%, -1.2%, -4%
Cc1ccccc1C(=O)c1c[nH]c(C(=O)NCC2CCCO2)c1 (stereo not given)
 : 2%, 0%, 15%, -17%, -2%, 0%, -0.7%, -8%
Cc1cc2ccccc2n2c(SCC(=O)N3CCc4ccccc4C3)nnc12
 : -20%, -16%, -23%, -14%, ?, 23%, -2.7%, 21%
COCCCNC(=O)CS(=O)(=O)Cc1nc(-c2cccc(OC)c2)oc1C
 : -16%, 6%, -14%, -8%, 8%, 3%, 0.6%, 1%
Cc1ccc(CNC(=O)Nc2ccc(F)cc2F)n1C
 : -7%, 9%, -4%[46.1 µM], ?, nt, -11%, nt, -2%
COc1ccc(-c2csc(NC3OC(=O)c4ccccc43)n2)cc1 (stereo not given)
 : -21%, 5%, nt, nt, nt, 11%, nt, -1%
Cc1onc(-c2ccccc2)c1C(=O)Nc1ccncc1
 : 2%, ?, 10%, 2%, 0%, -1%, 4.9%, 10%
CC1=C(c2ccccc2)SC2=NCCN21
 : -7%, 3%, nt, nt, nt, 1%, nt, 0%
COc1ccc(OC)c(C2CC(=O)N3CN(c4cccc(Cl)c4C)CSC3=C2C#N)c1 (stereo not given)
 : -6%, -34%, nt, nt, -25%, 1%, -1.8%, 11%
CCCCC(=O)N(Cc1ccc(F)cc1)C1CCS(=O)(=O)C1 (stereo not given)
 : -9%, -2%, nt, nt, nt, 2%, nt, 1%
COc1ccccc1C(=O)OCC(=O)Nc1cc(S(=O)(=O)N2CCOCC2)ccc1N1CCCC1
 : -4%, -8%, nt, nt, nt, 11%, nt, -3%
CCOC(=O)C(=O)Nc1ccc2c(c1)OCO2
 : 34%[activator], 11%, -5%[46.1 µM], 8%, -13%, 17%, 0.8%, nt
O=C(C1CCN(S(=O)(=O)Cc2ccccc2)CC1)N1CCCc2ccccc21
 : -22%, -9%, ?, -2%, 0%, -5%, -2.5%, 4%
CC1(C)c2ccccc2-n2c1cc1oc(=O)cc(O)c1c2=O
 : -29%, -49%, -7%[46.1 µM], -14%[46.1 µM], nt, -22%, nt, 5%
Nc1ncnc2c1ncn2[C@H]1CC[C@@H](CO)O1
 : 17%&-6%, nt, nt, nt, 2%&-1%, 5%, 4.6%&0.6%, -8%
O=C(O)c1ccc(S(=O)(=O)N2CCN(c3ccccn3)CC2)cc1
 : -11%, 0%, nt, nt, nt, -2%, nt, ?
O=C1C(c2ccncc2)=C(O)c2ccccc21
 : 0%, 0.25µM*, 7.1µM*, 7.9µM*, -6%, ?, -4.7%, -1%
CC(C)c1ccc(CNC(=O)CSCC(=O)Nc2ccc3ccccc3c2)cc1
 : -19%, 13%, ?, -30%, 1%, 5%, -12%, 6%
CSCC(=O)NC1CCCc2c1cnn2-c1cc(F)cc(F)c1 (stereo not given)
 : 39%[activator], -11%, nt, nt, nt, -7%, nt, -2%
Cc1ccc(C)c(NC(=O)c2cnn3ccccc23)c1
 : 28%, -92%, nt, nt, 3%, -3%, -0.6%, 4%
C[C@H](NC(=O)CCn1nnc2ccccc2c1=O)C(=O)O
 : -22%, 10%, 3%, nt, nt, 3%, nt, 0%
Cc1nc(NC(=O)COC(=O)CCS(=O)(=O)c2ccccc2Cl)c(Cl)cc1Cl
 : -15%, -9%, 6%, -3%, -26%, -1%, 22µM*, -2%
Cc1cc2c(c(/C=C/C(=O)c3ccccc3)c1)OC1(C=C2)Oc2ccccc2C(=O)N1C (stereo not given)
 : 25µM*, nt, ?, ?, nt, 22%, nt, 0%
CCn1c(COc2ccccc2C)nnc1SCC(=O)OC
 : 10%, -8%, ?, -7%, 12%, 21%, 0.8%, -1%
Cc1ccc(S(=O)(=O)N2CCCC(C(=O)Nc3cccnc3)C2)cc1 (stereo not given)
 : ?, 2%, -5%, 4%, 3%, 1%[3.69 µM], 0.3%, 2%
Cc1ccc(C(=O)N(Cc2sccc2C)C2CCS(=O)(=O)C2)cc1 (stereo not given)
 : -17%&0%, 1%, -8%, ?, 4%, 1%, -2.1%, 2%
COc1ccc(C(CNC(=O)Cc2ccc3ccccc3c2)N(C)C)cc1 (stereo not given)
 : -2%, 1%, ?, 15%, nt, 3%, nt, 0%
O=C(CSc1ncn[nH]1)OCN1C(=O)c2ccccc2C1=O
 : 17%, 4%, 23%, 11%, -4%, 11%, 0.5%, 7%
O=C(CSc1ncccn1)Nc1cc(Cl)ccc1[N+](=O)[O-]
 : 4%, nt, -1%[14.2 µM], -4%, nt, 4%, nt, 0%
CCOC(=O)c1ccc(NC(=O)/C=C/c2cccs2)cc1
 : -9%, -41%, ?, ?, nt, 30%, nt, -2%
CC(C(=O)Nc1cccc([N+](=O)[O-])c1)N(c1ccccc1)S(C)(=O)=O (stereo not given)
 : 24%, 1%, -13%[46.1 µM], -29%[46.1 µM], nt, 3%, nt, 0%
COc1ccccc1-n1ncc2c(=O)[nH]c(SCC(=O)Nc3ccc(Cl)cc3)nc21
 : -1%, nt, nt, -19%[46.1 µM], -2%, nt, -0.5%, nt
O=C(CS(=O)CC(=O)Nc1cccnc1)Nc1ccc(F)cc1 (stereo not given)
 : 0%, 5%, 3%[46.1 µM], 12%[46.1 µM], nt, 6%, nt, 1%
Cc1nnc(NC(=O)CN2CCN(Cc3c(Cl)cccc3Cl)CC2)s1
 : -10%, 3%, 5%, -11%, nt, -8%, nt, 2%
Cc1onc(-c2c(F)cccc2Cl)c1C(=O)N=C(N)N1CCCC1
 : 6%, 7%, -6%[46.1 µM], -5%, nt, -26%, nt, 3%
O=C(CSc1nnc(-c2ccccc2)o1)n1c2c(c3ccccc31)CCCC2
 : nt, -42%, -5%, nt, 25µM*, nt, -0.1%, 0%
COc1cc2c(cc1OC)C1CC(=O)C(CC(C)C)CN1CC2 (stereo not given)
 : -27%, 8%, ?, ?, nt, 8%, nt, 13%
CCOC(=O)CSc1nc2c(sc3ccccc32)c(=O)n1CCO
 : -24%, nt, nt, -2%[46.1 µM], 25%, nt, -4.1%, nt
O=S(=O)(c1ccc(Oc2ccc(F)c(Cl)c2)nc1)N1CCOCC1
 : -25%, nt, ?, -2%, nt, 4%, nt, 3%
Cc1ccc2nc(CCc3nc4ccc(C)cc4[nH]3)[nH]c2c1
 : -21%, -7%, -21%, -18%, nt, -6%, nt, -3%
Cc1sc2nc(CN3CCC(C)CC3)nc(Cl)c2c1C
 : nt, 6%, -11%, -2%, ?, nt, -1.0%, 4%
Cc1[nH]c(=O)[nH]c(=O)c1S(=O)(=O)N1CCCC(C(=O)NCc2ccccc2Cl)C1 (stereo not given)
 : -11%, -8%, 5%, 10%, 0%, -4%, -1.3%, -9%
O=C(O)c1ccc(NC(=O)c2cn(-c3ccccc3)nc2-c2ccc(Cl)cc2)cc1
 : ?, 8%, ?, nt, nt, -26%, nt, -4%
Cc1c(NC(=O)C(C)N2C(=O)C3C4C=CC(C4)C3C2=O)c(=O)n(-c2ccccc2)n1C (stereo not given)
 : 0%, 0%, 5%, nt, -17%, -8%, 2.5%, 8%
COc1ccc(CNC(=O)c2c(O)c3cccc4c3n(c2=O)CCC4)cc1
 : -15%, 5%, -12%, -20%, -17%, 0%, -1.5%, -6%
CC1CCC(NC(=O)CCCCn2c(=O)[nH]c3ccsc3c2=O)CC1 (stereo not given)
 : -1%, 7%, -8%[46.1 µM], -19%[46.1 µM], nt, 1%, nt, 2%
COC(=O)c1c(C(=O)OC)c(-c2cccc(Cl)c2)n2c1CS(=O)C2 (stereo not given)
 : 21%, nt, ?, -8%[46.1 µM], nt, 4%, nt, 1%
O=C1Nc2ccccc2Nc2ncccc21
 : -3%, 13%, -16%, 13%, 16%, 11%, 0.3%, 12%
COc1cccc(/C=C2\N=C(c3c(-c4ccccc4)noc3C)OC2=O)c1OC
 : nt, ?, -4%, -2%, 9%, 17%, -6.6%, 15%
NS(=O)(=O)c1ccc(CNC(=O)c2ccc(Cl)c([N+](=O)[O-])c2)cc1
 : -27%, 1%, nt, nt, nt, 0%, nt, 0%
CN(C=C1C(=O)CC(C)(C)CC1=O)CCN1CCNCC1
 : -2%, 4%, 7%&7%[46.1 µM], -5%, 3%, 21%, 2.1%, -3%
COC(OC)C(C)NC(=O)NC(=O)c1ccccc1Cl (stereo not given)
 : -4%, 2%, nt, nt, nt, 4%, nt, -1%
COc1ccc(C(=O)Nc2ccccc2C(N)=O)cc1
 : 28%, -50%, 25%, -1%, -2%, -21%, -0.9%, -6%

Screening results: PubChem, National Center for Advancing Translational Sciences (NCATS)
